Source: PubChem BioAssay
BJeLR lethal: BJeLR cell viability loss; BJeLR (HRASV12) viability, CellTiter-Glo ATP luminescence, 48 h; reference of the scale not given here; AID 1554; actives 0.17% (n = 300,000); inhibition, % (concentration not given with the values);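 active means replicate mean above 50%; inconclusive means above 50% but judged a plate artefact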;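 further: 50 nL library stock added to about 25 µL; numbers are from one replicate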
Autofluor counter: compound fluorescence in toxin protease inhibitor counterscreen. actives 3.1% (n = 360,000). fluorescence intensity (test concentration not listed). compound autofluorescence counterscreen, microsphere flow cytometry; stronger effect = higher value;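 active means at least 3 SD above the mean of all compounds, about 16000 in these data; inconclusive means too few beads counted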;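 further: 100 nL of 1 mM stock went into each well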
PrP 5UTR inh: suppresses PrP 5' UTR mRNA reporter expression. cell-based PrP 5' UTR mRNA reporter, plate reader. inhibition, % (concentration not given with the values). actives 0.35% (n = 340,000). AID 488862;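 active means every replicate at 50% or more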;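 further: 0 = median of the neutral control wells; tested in H4 reporter cells; numbers are from one replicate; inactives centre near -14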
Mtb hypoxia rep: inhibitors of hypoxia-regulated fluorescent reporter in Mycobacterium tuberculosis. fluorescence inhibition, % (no concentration beside the values). actives 0.1% (n = 300,000). M. tuberculosis hypoxia-regulated fluorescent reporter, fluorescence;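 active means 35 to 45% if threefold the growth effect, above 45% if 1.5-fold the growth effect; inactive means the rest, general growth blockers included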;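 further: wells of about 50 µL received 100 nL stock; 0% = vehicle wells and 100% = reference inhibitor wells; whole bacteria with a GFP reporter of the hypoxia response; strong numbers were not always called active; many hits fall short of the cut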
Sa RN4220 lethal: kills Staphylococcus aureus RN4220 | S. aureus RN4220 growth, OD600, 16 h | inhibition, % (no concentration beside the values) | actives 0.33% (n = 330,000);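 active means z-score of -3 or lower and OD600 up to 0.18 on both plates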;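 further: plate controls were untreated cells for no effect and reference antibiotic for full effect; stock transfer was 100 nL into about 80 µL; one replicate is shown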
Sa ugtP lethal: compounds lethal to S. aureus RN4220 ugtP deletion mutant. OD600 growth, 16 h; some inactives read as strong as hits. growth inhibition, % (concentration not given with the values). actives 0.54% (n = 330,000). AID 1259309;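 active means z-score under -3 and OD600 up to 0.15 on both plates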;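 further: plate controls were untreated wells for no effect and antibiotic for full effect; wells of about 80 µL received 100 nL stock; the first replicate is given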
Mtb hypoxia rep growth: recorded beside Mtb hypoxia rep, whose call it bears; growth inhibition, %; measured here: M. tuberculosis growth (absorbance);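 0% = vehicle and 100% = reference antibiotic; read after six days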
An asterisk follows results filed as active; ? = inconclusive; / = no result given.

SMILES | BJeLR lethal | Autofluor counter | PrP 5UTR inh | Mtb hypoxia rep | Mtb hypoxia rep growth | Sa RN4220 lethal | Sa ugtP lethal
COc1ccc(C)cc1NC(=O)CN1CCN(C/C=C/c2ccccc2)CC1 | 1 | ? | -14 | 5 | 9 | 5.5 | 8
O=C(CSc1ncnc2c1oc1ccccc12)NCc1ccc(F)cc1 | 1 | 6123 | -18 | 4 | 5 | 3.3 | 5
FC(F)(F)c1cnc(-n2cc[nH]c2=S)c(Cl)c1 | 9 | 2796 | -10 | / | / | -4.8 | -3
Cc1ccc(C(=O)NC(=S)NNC(=O)CCN2CCOCC2)cc1 | 3 | 3284 | -13 | 4 | 6 | 5.9 | -3
CC(=O)N1c2ccccc2C(C)(C)C2CCC(C)CC21 (stereo not drawn) | 12 | 9130 | -5 | -3 | 3 | 3.0 | -10
CCC1=Nc2cc(C(=O)NCc3cccnc3)ccc2Sc2ccc(C)cc21 | 29 | 4702 | -46 | -1 | 0 | -0.7 | -13
COc1cccc(-c2nn(C)c3sc(C(=O)NCCCN(C)Cc4ccccc4)cc23)c1 | 10 | 4158 | -19 | -2 | 5 | -7.2 | 9
Cc1ccc(CNC(=O)COC(=O)c2cnccn2)cc1 | 5 | 10898 | -12 | 5 | 8 | -0.1 | 0
Cc1cc(Cl)c(S(=O)(=O)N2CCN(c3ccc(F)cc3)CC2)cc1OCC(N)=O | 35 | 3071 | -17 | / | / | 4.1 | -2
Cn1cnc(S(=O)(=O)NCc2ccccc2)c1 | 12 | 7917 | -9 | 5 | 6 | 4.1 | 0
CC1CCN(CCCCOc2ccc(C(C)(C)C)cc2)CC1 | 5 | 3682 | -10 | 11 | 24 | 0.9 | 9
COc1ccccc1CCn1c(N)c(C#N)c2nc3ccccc3nc21 | -7 | 13078 | -9 | -5 | 5 | 2.8 | -1
COC(=O)c1sc(N2C(=O)C(=O)/C(=C(/O)c3ccc(C)cc3)C2c2ccco2)nc1C (stereo not drawn) | -1 | / | / | 7 | 4 | -3.8 | 3
CC(C)[C@H](NC(=O)OC(C)(C)C)c1nnc(SCC(=O)Nc2ccc(Br)cc2)o1 | -8 | 6842 | -19 | -6 | -2 | -0.8 | -4
NS(=O)(=O)c1ccc(NN=C2CCCCC2)c([N+](=O)[O-])c1 | -10 | 2315 | -34 | 2 | 3 | 3.6 | 1
CCOc1cc(N2CCOCC2)c(OCC)cc1NC(=O)COC(=O)c1ccccc1C | 14 | 2468 | -15 | 3 | 7 | 11 | 6
Cc1ccc(S(=O)(=O)CCC(=O)NCCc2ccccc2)cc1 | -1 | 3910 | -19 | 1 | 14 | 3.9 | 1
O=C(CN1CCN(S(=O)(=O)c2ccc(Cl)c(Cl)c2)CC1)N1CCCC1 | / | 2828 | -9 | -2 | 0 | 1.6 | 4
CCc1noc(C)c1C(=O)N1CCCSC1=Nc1ccccc1OC | -3 | / | -5 | 0 | -5 | 0.9 | 4
O=C(NC1CCCCC1)c1ccc2c(c1)OCCO2 | 6 | 3712 | -52 | 23 | 21 | 4.7 | 10
CSCCC(NC(=O)c1ccccc1)C(=O)NCCc1ccccc1 (stereo not drawn) | -9 | 4115 | -23 | 11 | 5 | 4.3 | 16
COc1ccc(Cl)cc1NC(=O)CCCNC(=O)c1ccc(Cl)cc1 | 3 | 4001 | -33 | -2 | -3 | -0.3 | -4
Cc1ncc(CO)c(CO)c1O | -5 | 5273 | -19 | 2 | 1 | 7.6 | 4
CC(C)(C)C(=O)Nc1ccc(C(=O)Nc2cccnc2)cc1 | -7 | 23774* | -56 | 10 | 9 | -1.5 | -4
Cc1ccc(S(=O)(=O)N2CCC(C)CC2)cc1[N+](=O)[O-] | 7 | 3304 | 5 | 8 | 19 | 5.1 | 3
CC(=O)OCC=C1CCC2C3CC(C)C4=CC(=O)CCC4(C)C3C(O)CC12C (stereo not drawn) | / | 3698 | -1 | 2 | 12 | 1.4 | -17
CCC(C)NC(=O)CSc1ncccc1C(=O)O (stereo not drawn) | -1 | 7866 | -25 | 2 | 6 | 1.4 | 9
C[N+](C)(C)C[C@H](O)CC(=O)O | -5 | 4370 | -3 | / | / | / | /
CCOC(=O)c1c(S(=O)(=O)N2CCC(C)CC2)c(C)n(C)c1C | -3 | 5143 | -9 | -12 | 0 | -2.2 | -7
Cc1ccccc1CN1C[C@@H]2C[C@@H](c3cn(C)nc3-c3ccccc3)N3CCC[C@@]23C1=O | -12 | 5572 | -7 | -6 | 5 | 6.2 | 4
CCC(=O)c1cc(F)ccc1OCC(=O)N1CCN(c2ccc(F)cc2)CC1 | 8 | 4471 | 4 | 6 | 5 | -2.7 | 9
CC(C)(C)NC(=O)C(c1ccccn1)N(C(=O)C1CSC(=O)C1)c1ccccc1F (stereo not drawn) | 10 | 3120 | -10 | -7 | 2 | 3.6 | 0
CC1CN(S(=O)(=O)c2c(F)cccc2F)CCN1S(=O)(=O)c1ccc2c(c1)OCCO2 (stereo not drawn) | / | / | / | 17 | 9 | 7.9 | -2
N#Cc1ccccc1OCC(=O)Nc1cccc(S(=O)(=O)N2CCCCCC2)c1 | / | 3644 | -8 | -2 | 7 | 14 | -7
Cc1ccc(C(=O)N2CCCCC2)cc1S(=O)(=O)N1CCOCC1 | 9 | 6740 | -6 | 9 | -14 | 1.2 | 0
COCc1nnc(NC(=O)CC(C)c2ccccc2)s1 (stereo not drawn) | 0 | 4645 | -26 | 4 | 3 | -1.1 | -6
O=C(NCc1ccco1)c1cccn2c(=O)c3sccc3nc12 | -5 | 9490 | -14 | 9 | 6 | 5.7 | -3
OCCNc1ncnc2c1cnn2Cc1ccccc1 | -4 | 3060 | -13 | 5 | 3 | 1.6 | 5
Cc1csc(NC(=O)c2cccnc2)n1 | -2 | 2959 | -7 | 2 | 2 | 4.9 | 6
CCN(C(=O)CSc1nc2ccc([N+](=O)[O-])cc2s1)C1CCS(=O)(=O)C1 (stereo not drawn) | -4 | 3556 | -8 | -7 | -1 | 12 | 9

Some of the entries above, set out differently:
| mol | BJeLR lethal | Autofluor counter | PrP 5UTR inh | Mtb hypoxia rep | Mtb hypoxia rep growth | Sa RN4220 lethal | Sa ugtP lethal |
| --- | --- | --- | --- | --- | --- | --- | --- |
| CC(C)(C)NC(=O)C(c1ccccn1)N(C(=O)C1CSC(=O)C1)c1ccccc1F (stereo not drawn) | 10 | 3120 | -10 | -7 | 2 | 3.6 | 0 |
| CC1CN(S(=O)(=O)c2c(F)cccc2F)CCN1S(=O)(=O)c1ccc2c(c1)OCCO2 (stereo not drawn) | / | / | / | 17 | 9 | 7.9 | -2 |
| N#Cc1ccccc1OCC(=O)Nc1cccc(S(=O)(=O)N2CCCCCC2)c1 | / | 3644 | -8 | -2 | 7 | 14 | -7 |
| Cc1ccc(C(=O)N2CCCCC2)cc1S(=O)(=O)N1CCOCC1 | 9 | 6740 | -6 | 9 | -14 | 1.2 | 0 |

The list continues.
SMILES | BJeLR lethal | Autofluor counter | PrP 5UTR inh | Mtb hypoxia rep | Mtb hypoxia rep growth | Sa RN4220 lethal | Sa ugtP lethal
CC(C)Oc1cccc(C(=O)Nc2ccc(N3CCN(C)CC3)cc2)c1 | -5 | 3902 | -43 | 7 | 3 | 2.8 | 11
O=C(NCc1ccccc1)C1CCC(=O)N(CCCN2CCCC2=O)C1 (stereo not drawn) | 3 | 4457 | -16 | 7 | -2 | 2.0 | 11
O=C(NC1CCCCC1)c1cc(S(=O)(=O)N2CCOCC2)c(Cl)cc1Cl | -1 | 2998 | -10 | -4 | -2 | 6.9 | 7
CS(=O)(=O)N1CCN(c2ccc(NC(=O)COc3ccccc3[N+](=O)[O-])cc2)CC1 | -10 | 5931 | -23 | -3 | -2 | 0.8 | -5
CC(C)N(Cc1nc(-c2ccccc2)no1)C(=O)CN(C)S(=O)(=O)c1ccc(Br)cc1 | / | 8370 | -21 | 10 | 12 | 3.5 | 6
COc1cc(SC)ccc1C(=O)N(C)CC(=O)Nc1cccc2ccccc12 | / | 5457 | -3 | -3 | 6 | 2.7 | 1
Cc1c(C(=O)N2CCCCC2)c(S(=O)(=O)N2CCN(c3ccc(Cl)cc3)CC2)c(C)n1C | -2 | 4816 | 10 | 4 | 4 | 0.1 | 5
Cn1cnc(C(F)(F)F)c1-c1ccc([N+](=O)[O-])cc1 | 4 | 2538 | -20 | 7 | 4 | 7.6 | 5
Cc1nc2cc3nc(C(F)(F)F)[nH]c3cc2[nH]1 | -9 | 2529 | -30 | / | / | / | /
COc1ccc(-c2sc3ccccc3c2-c2ccc(OCCN3CCCCC3)cc2)cc1 | / | 3947 | -8 | 6 | 14 | 15 | 46
Cc1ccnc(NC(=O)/C=C/c2cccs2)c1 | -2 | 2535 | -124 | 1 | 0 | -2.8 | 9
CCN(CC(=O)Nc1ccc(NC(C)=O)cc1)C(=O)/C=C/c1ccccc1 | 4 | 4830 | -23 | -1 | -2 | 4.2 | 8
N#Cc1ccc(NC(=O)CN2C(=O)NC3(CCCC3)C2=O)cc1 | 5 | 4403 | -21 | -3 | 5 | 3.4 | 0
Cc1cc2cc(C#N)c(NCCNC(=S)NCCCN3CCOCC3)nc2cc1C | -5 | 2912 | -6 | 5 | 10 | 2.5 | 8
ON=Cc1nc2cc(Cl)ccc2o1 | / | / | / | 10 | 0 | 2.4 | -2
COc1cc(C(Nc2ccc(S(=O)(=O)NCC3CCCO3)cc2)C(=O)NC(C)(C)C)cc(OC)c1OC (stereo not drawn) | 9 | 4332 | -21 | -3 | -8 | -0.3 | -1
COc1c2c(nc3occc13)C(CC=C(C)C)(OC)C(O)CC2 (stereo not drawn) | -4 | 3170 | -4 | / | / | 1.3 | 8
S=C(c1cn(Cc2ccccc2)c2ccccc12)N1CCOCC1 | 4 | 4438 | -22 | 6 | 1 | 2.1 | 20
O=S(=O)(NC1CC1)c1ccc(S(=O)(=O)N2CCC3(CC2)OCCO3)cc1 | -18 | 4354 | -17 | / | / | / | /
Cc1nn(C(=O)c2ccco2)c(C)c1CN1C(=O)c2ccccc2C1=O | -2 | 8549 | -41 | 11 | -4 | 3.7 | 7
CCOc1ccc(CN2CCC(n3nccc3NC(=O)CCCc3ccccc3)CC2)cc1 | -2 | 5004 | -2 | -3 | -3 | 1.3 | -5
CC[C@@H](C)[C@H](NC(=O)OCc1ccccc1)c1nnc([C@@H](NC(=O)OCc2ccccc2)[C@@H](C)CC)o1 | -5 | 3606 | -10 | / | / | / | /
Cc1ccc(C(=O)CCNc2ccc(F)c(Cl)c2)o1 | -10 | 3709 | -16 | 10 | 12 | 8.6 | -2
C=CCNc1nc(Cl)nc(Nc2cc(Cl)ccc2OC)n1 | 7 | 4088 | 14 | 3 | 4 | 1.5 | -3
CCC1CCCCN1CCCNC(=O)C1CCN(S(=O)(=O)N2CCC3(CC2)OCCO3)CC1 (stereo not drawn) | -8 | 5230 | -23 | 5 | 10 | 2.9 | 3
CCOc1cc2[nH]c(=S)n(Cc3ccc(C(=O)NCC(OC)OC)cc3)c(=O)c2cc1OCC | 1 | 9459 | -28 | 18 | 11 | 6.4 | -15
COc1ccc(OC(=O)N(C)C)c(CN(C)C)c1 | 3 | 4893 | 3 | / | / | -0.8 | 8
Oc1ccc(/C=N/Nc2cc(N3CCOCC3)nc(N3CCOCC3)n2)cc1 | -1 | 6680 | 0 | / | / | / | /
COc1ccc2cc(CCNC(=O)C(C)C)c(=O)[nH]c2c1 | 11 | 5765 | -26 | 4 | 1 | 2.8 | 5
Cc1ccc(C)c(OCCCC(=O)O)c1 | -3 | 4197 | 2 | 2 | 9 | 1.9 | -5
CN(C(=O)/C(N=Nc1cccc(C(F)(F)F)c1)=C(\O)C(F)(F)F)c1ccccc1 | 8 | 16687* | -9 | 4 | -2 | 12 | -16
CC(C)N(C(=O)C1CC(=O)OC12CCCCC2)C(C)C (stereo not drawn) | 1 | 8456 | 1 | -9 | -2 | -0.2 | -3
Cc1csc(=O)n1CCC(=O)OC(C)C(=O)NCc1ccccc1 (stereo not drawn) | / | 4041 | -25 | 4 | 3 | 3.2 | 6
CCOC(=S)N/C(=N\S(C)(=O)=O)c1ccccc1 | -7 | 3532 | -21 | / | / | / | /
Cc1cc(-c2cc(-c3ccccc3)on2)nc(NCC2CC2)n1 | 2 | 2976 | -11 | 2 | 2 | -0.6 | 6
CCN(c1ccccc1)S(=O)(=O)c1ccc(C(=O)N(C)CCc2ccc(OC)c(OC)c2)cc1 | -3 | 3795 | -5 | -10 | 6 | 0.2 | -1
CCOC(=O)C1(Cc2ccccc2C)CCCN(C(=O)c2ccc(OC)o2)C1 (stereo not drawn) | -1 | 6061 | -20 | 8 | 2 | 3.7 | 2
